# Assay outcomes as filed in PubChem BioAssay.
# GIV-Gai inh – inhibitors of GIV GBA-motif binding to rat Galpha-i3; percent of control (FP), % (no concentration beside the values); Galpha-i3/FITC-GIV peptide fluorescence polarization, 90 min; active compounds read low; scaled: aluminum fluoride 0%, vehicle 100%; 0.42% of 210,000 active; AID 1224905; P08753;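 active = replicate mean at 85% of control or lower, very high polarization wells dropped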;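 note: wells of about 15 µL received 100 nL stock; the first replicate is given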
# Target sequence (P08753 whole entry, looked up): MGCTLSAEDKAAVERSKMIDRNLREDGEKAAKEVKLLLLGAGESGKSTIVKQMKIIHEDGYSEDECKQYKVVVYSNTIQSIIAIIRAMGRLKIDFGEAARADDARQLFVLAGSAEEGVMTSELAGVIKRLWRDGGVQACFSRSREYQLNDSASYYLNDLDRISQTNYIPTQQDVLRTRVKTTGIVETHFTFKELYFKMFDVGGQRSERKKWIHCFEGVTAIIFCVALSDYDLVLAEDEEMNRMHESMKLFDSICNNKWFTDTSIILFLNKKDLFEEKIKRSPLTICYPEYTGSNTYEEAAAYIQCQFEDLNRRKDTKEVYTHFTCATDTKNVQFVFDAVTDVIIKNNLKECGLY
# Sa growth inh – inhibitors of Staphylococcus aureus growth at 42 °C | 0.53% of 170,000 active | relative growth, % (concentration not given with the values) | S. aureus RN4220 growth, OD600, 20 h; active compounds read low;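 active = growth at 42 °C up to 50% and 20 or more points under that at 30 °C, or under 10% at both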;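 note: 300 nL library stock went into each well; scaled to the means of positive and negative controls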
# HCMV NEC inh – inhibitors of HCMV UL50-UL53 nuclear egress complex interaction | HTRF UL50-UL53 interaction, normalized percent inhibition | inhibition, % (test concentration not listed) | 0.15% of 190,000 active;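 active = both replicates at 50% or more, plus weaker picks with an unusually low signal ratio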;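 note: stock transfer was 100 nL into about 20 µL; 0% = negative control wells and 100% = wells with untagged competitor protein; inactives centre near -12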
# Sa growth inh second temp – recorded beside Sa growth inh, whose call it bears; relative growth, %; measured here: growth at 30 °C;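 optical density after 20 h as mean of two plates; 100% = untreated growth and lower means inhibition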
# Active calls of the source: *; x = no result given; & = joins results of further samples.
1: O=c1[nH][nH]c(=S)n1C1CC1
2: CCN(CC)C(C)C(=O)Nc1c(C)cccc1C (stereo unspecified)
3: CC(=O)c1c(C)oc2c1cc(NS(=O)(=O)c1ccc(Cl)c(C)c1)c1ccccc12
4: O=S(=O)(c1cc(Cl)ccc1Cl)N1CCCC1
5: CCN(CC)C(=O)CSc1nc(-c2ccc(C)cc2)nc2c1Cc1c(CO)cnc(C)c1O2
6: N#Cc1ccc(N2CCCN(S(=O)(=O)c3cccs3)CC2)nc1
7: Cc1ccc2oc(=O)c3cnn(CC(=O)NCCN4CCN(Cc5ccccc5)CC4)c3c2c1
8: Brc1ccc(-c2csc(Nc3ccncc3)n2)cc1
9: O=C1c2cccnc2C(=O)N1c1nccs1
10: COc1ccc(OC)c(NC(=O)CN2CCCN(Cc3ccccc3Cl)S2(=O)=O)c1
compound no.	1	2	3	4	5	6	7	8	9	10
HCMV NEC inh	-12.5&4.6	-29.1	-8.0	0.7	x	-3.4	x	-0.3	4.0	x
GIV-Gai inh	108.7	102.4	100.0	105.6	97.7	104.8	100.2	107.6	105.8	103.2
Sa growth inh	97.9&69.9	80.1	97.6	49.0*	115.3	76.7	97.2	105.0	93.1	99.2
Sa growth inh second temp	88.8&90.4	91.2	91.2	71.6*	92.5	93.3	87.3	63.0	96.4	99.0

11: CNC(=O)c1c(NC(=O)C2=COCCO2)sc(C)c1C
12: COc1ccc(N2C(=O)CC(Sc3nc(C)c4ccccc4n3)C2=O)cc1 (stereo unspecified)
13: CCOc1ccccc1C(=O)NCc1cn2ccsc2n1
14: Cc1cn2c(-c3ccccc3F)nc(=S)nc2s1
15: O=C1c2ccccc2C(F)(F)c2c(F)cccc21
16: CCCCc1ccc(NC(=O)CSCC(N)=O)cc1
17: COc1ccc(OCC(=O)OCc2cc(=O)n3nc(C4CCCCC4)sc3n2)cc1
18: COc1ccc(-n2c(=O)c3c4c(sc3n(CC(=O)N3CCCCC3C)c2=O)CCC4)c(OC)c1 (stereo unspecified)
19: COc1ccc(CNC(=O)c2ccc(NC(=O)N3CCSc4ccccc43)cc2)cc1
20: CCOC(=O)c1ccc(Oc2nc(NC(C)C)nc(NC(C)C)n2)cc1
compound no.	11	12	13	14	15	16	17	18	19	20
HCMV NEC inh	-28.9	1.5	-33.2	-39.7	6.2	-4.5	x	5.5	-29.8	-9.8
GIV-Gai inh	104.3	103.1	102.7	x	110.2	108.6	102.3	106.9	102.6	102.1
Sa growth inh	107.2	x	98.8	86.0	95.7	113.9	77.4	111.1	103.8	x
Sa growth inh second temp	91.3	x	84.3	83.9	90.6	98.4	89.6	95.4	86.5	x

21: O=C(Nc1ccc(N2CCC(N3CCCCC3)CC2)c(C(=O)O)c1)c1ccc(Br)cc1
22: CCCCC(C(=O)O)N1C(=O)/C(=C/c2cccnc2)SC1=S (stereo unspecified)
23: COC(=O)c1c(C(=O)OC)c(-c2ccccc2)n2c1CCC2
24: O=C(NC1CCCc2ccccc21)c1cc(S(=O)(=O)N2CCCCC2)c[nH]1 (stereo unspecified)
25: CC(C)Cn1c(CN2CCN(c3cccc(Cl)c3)CC2)nc2c1c(=O)[nH]c(=O)n2C
26: CCOC(=O)NN1CNc2ccccc2C1=O
27: COC(=O)C1CCN(C(=O)CCC2CCCCC2)CC1
28: c1ccc(CN=C2SC(=Nc3ccccc3)C3=C2CCCC3)cc1
29: CCOc1ccc(NC(=O)c2cn(C)c(=O)c3cc(OC)c(OC)cc23)cc1
30: CC1CCCCC1NC(=O)COC(=O)c1cc(-c2ccco2)nc2ccccc12 (stereo unspecified)
compound no.	21	22	23	24	25	26	27	28	29	30
HCMV NEC inh	x	-44.8	-0.5	23.7	17.5	x	-3.1	-36.3	-8.9	-47.5
GIV-Gai inh	99.3	83.3*	105.2	103.5	104.3	103.0	106.3	102.5	103.6	x
Sa growth inh	104.3	81.3	x	118.3	95.3	106.6	105.8	91.7	97.5	100.6
Sa growth inh second temp	82.5	44.8	x	100.2	89.6	87.7	84.9	85.2	96.7	99.5

31: COc1ccc(CNC2CCCCC2)cc1
32: COCCOC(=O)c1c(C)oc2ccc(OC(=O)COc3c(F)c(F)c(F)c(F)c3F)cc12
33: O=C(OCC(=O)c1ccccc1Cl)c1cnccn1
34: CCn1nc(SCC(=O)NCc2ccccc2)n2c(=O)c3c(nc12)-c1ccccc1CC3(C)C
35: Cc1c(CCC#N)c(Cl)n2c(nc3ccccc32)c1C#N
36: O=C(NC(=O)c1cnccc1C(F)(F)F)Nc1ccc(Cl)cc1Cl
37: CCNC(=O)c1cnc(N2CCCC2)nc1
38: O=C(NCc1ccccc1)c1ccc2noc(-c3ccccc3)c2c1
39: CCn1cc(/C=C/c2nc3ccccc3c(=O)n2CCCO)c2ccccc21
40: O=C(NCc1ccc(Br)cc1)C1CCN(c2cc(-c3ccccc3)ncn2)CC1
compound no.	31	32	33	34	35	36	37	38	39	40
HCMV NEC inh	-8.3	-21.3	10.9	-13.0	-29.3	-29.1	-3.0	-45.6	-18.6	-33.0
GIV-Gai inh	x	101.2	112.1	92.9	103.8	102.1	114.4	x	113.3	103.4
Sa growth inh	94.0	x	100.3	x	88.2	90.0	103.5	113.2	x	x
Sa growth inh second temp	95.1	x	71.9	x	88.3	86.4	107.7	102.5	x	x

41: Cc1sc(C)c(S(=O)(=O)Nc2ccc(F)c(Cl)c2)c1-c1ccno1
42: N=c1n(Cc2ccccc2)c2ccccc2n1CC(O)c1ccco1 (stereo unspecified)
43: CCOc1ccc2[nH]c(=O)c(CN(C(=O)Nc3ccccc3)C3CC3)cc2c1
44: CCCS(=O)(=O)N1CC(=O)N(c2cc(C)ccc2C)C(C)(C(=O)NC2CCCCCC2)C1 (stereo unspecified)
45: O=C(O)c1ccccc1NS(=O)(=O)c1ccccc1
46: CCOP(=O)(c1ccccc1)C(O)c1ccc(Br)cc1 (stereo unspecified)
47: COc1cccc(C(=O)Nc2c(C(=O)Nc3ccccc3F)oc3ccccc23)c1OC
48: O=C(NCC(c1cccnc1)N1CCc2ccccc2C1)c1ccc(F)c(F)c1 (stereo unspecified)
49: Cc1ccc(S(=O)(=O)CCSc2nnc(-c3ccco3)n2C)cc1
50: Cc1nc2cc(-c3ccccc3)nn2c(C)c1CC(=O)N1CCCC1
compound no.	41	42	43	44	45	46	47	48	49	50
HCMV NEC inh	-31.4	-7.3	4.5	x	3.1	-10.5	1.1	-16.4	-18.8	x
GIV-Gai inh	112.2	106.7	108.0	110.5	x	104.1	105.5	109.2	101.4	109.5
Sa growth inh	x	107.0	100.4	71.7	120.1	76.6	104.7	89.6	104.5	108.9
Sa growth inh second temp	x	88.6	113.5	90.9	106.0	100.1	85.8	93.8	83.1	99.6

51: S=c1[nH]c2ccccc2n1C1CCCCC1
52: CCS(=O)(=O)c1ccc(O)c(Nc2cc(C)nc(SC)n2)c1
53: Cc1c2n(c3ccccc13)CC/C2=N\O
54: Cc1ccc2oc(-c3ccc(C)c(NC(=O)c4ccc(N5CCC(C)CC5)c([N+](=O)[O-])c4)c3)nc2c1
55: COC(=O)c1ccc(Nc2c(C(=O)N3CCOCC3)cnc3ccccc23)cc1
56: CCCC(=O)c1c(NC(C)C)cc(C)oc1=O
57: Cc1c(C(=O)Nc2ccc(C(C)C)cc2)sc2nc[nH]c(=O)c12
58: CCCN(CCC)C(=O)Cn1c(=O)n(-c2ccc(Cl)cc2)c(=O)c2c3c(sc21)CCCCC3
59: O=C(CCS(=O)(=O)c1cc(Br)cc2c1N(C(=O)C1CC1)CC2)N1CCN(c2cccc(C(F)(F)F)c2)CC1
60: c1cn(-c2ccc3nnnn3n2)cn1
compound no.	51	52	53	54	55	56	57	58	59	60
HCMV NEC inh	-0.4	-10.7	-18.8	11.0	-26.9	-5.9	x	-4.3	3.3	-13.6
GIV-Gai inh	107.3	121.1	102.8	108.1	126.8	97.5	104.1	104.5	98.9	101.2
Sa growth inh	107.7	80.0	98.7	106.2	x	85.7	122.7	109.0	105.8	126.3
Sa growth inh second temp	72.0	76.4	83.7	107.6	x	102.0	95.1	91.1	92.2	89.6

61: CC1CCN(CCNc2cc(N(C)C)c3noc4c3c2C(=O)c2ccccc2-4)CC1
62: Cn1cc(S(=O)(=O)N2CCCC2)cc1C(=O)Nc1ccc(C(F)(F)F)cc1
63: CCOC(=O)N1CCN(c2nc(-c3ccccc3)cc(C(F)(F)F)n2)CC1
64: O=C1CC2(CCCC2)C(=O)N1c1ccc(S(=O)(=O)NCC2CC2)cc1Cl
65: COCCOC(=O)c1ccc2nc(N)sc2c1
66: CCN(CC)S(=O)(=O)N1CCC(C(=O)Nc2cccc(CCc3nc4ccc(C)cc4[nH]3)c2)CC1
67: CNC(=O)CSc1nnc(-c2ccccc2OC)n1CCc1ccccc1
68: Cc1nc(SC(C)C(=O)O)c(C#N)c(C)c1Cl (stereo unspecified)
69: Fc1c(F)c(F)c(NC2=NCCCCC2)c(F)c1F
70: Nc1cccc(CCC(=O)O)c1
compound no.	61	62	63	64	65	66	67	68	69	70
HCMV NEC inh	-134.6	8.3	-31.6	x	-32.6	-20.3	15.1	2.3	-30.4	-22.5
GIV-Gai inh	-4.4*	104.4	96.5	99.7	101.7	105.4	x	110.6	x	103.7
Sa growth inh	x	83.6	84.7	104.7	86.4	x	102.9	106.9	125.0	95.4
Sa growth inh second temp	x	86.6	84.6	81.3	78.7	x	95.1	98.7	86.5	90.2

71: CC(C)(C)c1ccc(C2NC(=O)c3n[nH]c(-c4cccs4)c32)cc1 (stereo unspecified)
72: COc1ccccc1N1CCN(S(=O)(=O)CCNC(=O)COc2ccc(C(C)C)cc2)CC1
73: O=C(CSC(=O)c1ccco1)Nc1cc(C(F)(F)F)cc(C(F)(F)F)c1
74: Cc1ccc(Cl)cc1N1CCN(c2c3c(nc4ncnn24)CCCC3)CC1
75: O=C(NCC1CCCO1)c1cc(-c2ccc(Cl)s2)nc2ccccc12 (stereo unspecified)
76: CNc1nnc(-c2ccco2)s1
77: COC(=O)c1sc(-c2ccccc2)cc1NC(=O)CC#N
78: CCOC(=O)C1=C(c2ccccc2)OC(N)=C(C#N)C1c1ccc(C(F)(F)F)cc1 (stereo unspecified)
79: CCSc1nc(=O)n(Cc2ccccc2)c2c1CCC2
80: CCOC(=O)/C=C1\NC(c2ccccc2)=C(c2ccccc2)C1=O
compound no.	71	72	73	74	75	76	77	78	79	80
HCMV NEC inh	7.2	x	-19.0	-24.3	x	-24.6	1.4	-1.9	-14.0	-19.5
GIV-Gai inh	106.1	103.5	105.1	109.0	108.5	103.2	122.8	102.4	100.8	x
Sa growth inh	108.4	104.7	91.0	x	111.6	101.4	87.4	x	x	75.7
Sa growth inh second temp	95.8	84.3	76.5	x	89.6	87.7	82.5	x	x	69.1

# Shown with bars between the fields: part of the list above.
nr | structure | HCMV NEC inh | GIV-Gai inh | Sa growth inh | Sa growth inh second temp
72 | COc1ccccc1N1CCN(S(=O)(=O)CCNC(=O)COc2ccc(C(C)C)cc2)CC1 | x | 103.5 | 104.7 | 84.3
73 | O=C(CSC(=O)c1ccco1)Nc1cc(C(F)(F)F)cc(C(F)(F)F)c1 | -19.0 | 105.1 | 91.0 | 76.5
74 | Cc1ccc(Cl)cc1N1CCN(c2c3c(nc4ncnn24)CCCC3)CC1 | -24.3 | 109.0 | x | x
75 | O=C(NCC1CCCO1)c1cc(-c2ccc(Cl)s2)nc2ccccc12 (stereo unspecified) | x | 108.5 | 111.6 | 89.6

# The listing continues:
81: O=C(CNc1ccc2ccccc2c1)N1CCN(c2ccccc2)CC1
82: Clc1ccc(CNc2ncnc3onc(-c4ccc(Cl)cc4)c23)cc1
83: N#Cc1cn(CCCOc2ccccc2)c2ccccc12
84: CCC(=O)c1cn(CC(=O)N2CCc3ccccc32)c2ccccc12
85: COc1ccc(OC)c(C(=O)c2coc3ccc(O)c(CN(C)C)c23)c1
86: Cc1ccc2nc3c(c(C(=O)OC4CCOC4=O)c2c1)CCCC3 (stereo unspecified)
87: CC1CCC(N(C)Cc2nc3ccc(Cl)cc3n2CCO)CC1 (stereo unspecified)
88: Cc1[nH]c2ccccc2c1-c1ccc(Cl)nn1
89: Cc1cc(C#N)c2c(c1)-c1ccccc1CC2
90: CCN1CCN(C(=O)Cn2nc(C)c3sc4ccccc4c3c2=O)CC1
91: CCOC(=O)c1csc(CS(=O)(=O)Cc2cccc(C(F)(F)F)c2)n1
92: CC(C)c1cc(=O)[nH]c(SCc2nc(-c3ccccc3)no2)n1
compound no.	81	82	83	84	85	86	87	88	89	90	91	92
HCMV NEC inh	2.2	10.8	-11.7	-6.2	-6.0	-28.3	-12.3	-11.8	-30.9	x	-7.8	-25.0
GIV-Gai inh	x	105.0	x	x	102.9	x	x	102.6	102.6	104.6	105.4	100.9
Sa growth inh	89.5	109.7	88.6	98.0	96.7	108.1	125.3	x	88.9	102.2	108.4	90.2
Sa growth inh second temp	88.3	90.2	82.6	85.7	83.0	102.2	91.2	x	81.2	89.9	78.2	80.0
